N370S GC mod = N370S glucocerebrosidase modulation, Gaucher chaperone candidate. P04062. 330,000 compounds, 0.092% hits. Potency, µM (titrated, usually from 59.4 µM), without a hit: at the highest dose activity change, negative = inhibition, usual class: inhibitors. N370S GC spleen homogenate, 4MU-glucoside fluorescence;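 further: 0% = full enzyme activity and -100% = no enzyme basal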
GCN5L2 inh = blocks human GCN5L2 histone acetyltransferase. GCN5L2 HAT assay, ThioGlo1 CoA-SH fluorescence. 390,000 compounds, 0.21% hits. Q92830. AID 504327. Potency, µM (doses to about 58.9 µM), inactives show at the top dose activity change, negative = inhibition, hits mostly inhibitors
Target sequence (Q92830 whole entry, looked up): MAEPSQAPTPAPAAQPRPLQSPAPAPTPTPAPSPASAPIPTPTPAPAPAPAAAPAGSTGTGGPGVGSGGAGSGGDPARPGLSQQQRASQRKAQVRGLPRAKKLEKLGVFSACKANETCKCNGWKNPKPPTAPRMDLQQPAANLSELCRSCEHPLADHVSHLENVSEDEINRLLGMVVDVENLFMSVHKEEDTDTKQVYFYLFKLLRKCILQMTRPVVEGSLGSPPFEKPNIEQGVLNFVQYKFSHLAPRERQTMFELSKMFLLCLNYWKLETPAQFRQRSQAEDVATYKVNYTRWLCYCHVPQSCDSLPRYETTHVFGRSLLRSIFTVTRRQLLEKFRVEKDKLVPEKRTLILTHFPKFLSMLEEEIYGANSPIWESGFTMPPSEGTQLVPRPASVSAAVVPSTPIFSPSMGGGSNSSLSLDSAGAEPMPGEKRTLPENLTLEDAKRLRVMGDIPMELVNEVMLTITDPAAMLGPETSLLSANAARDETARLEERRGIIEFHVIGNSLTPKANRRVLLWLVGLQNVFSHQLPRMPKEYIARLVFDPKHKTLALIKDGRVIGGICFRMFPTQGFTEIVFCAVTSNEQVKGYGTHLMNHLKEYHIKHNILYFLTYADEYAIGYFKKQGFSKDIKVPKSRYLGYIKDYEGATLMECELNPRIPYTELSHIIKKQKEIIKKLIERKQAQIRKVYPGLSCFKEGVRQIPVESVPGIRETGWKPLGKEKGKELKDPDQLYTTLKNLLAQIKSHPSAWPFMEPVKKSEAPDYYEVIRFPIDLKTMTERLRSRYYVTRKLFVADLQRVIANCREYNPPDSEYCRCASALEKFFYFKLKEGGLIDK
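Preincubate 20nM GCN5L2 with compound 15 min, RT → add 50uM ThioGlo1 + 75uM H3(1-25) + 70uM acetyl-CoA → read fluorescence 0 and 20 min. Primary qHTS; fluorescent artifacts likely.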
* marks the source's active call; other numbers are inactive results; ? = inconclusive; . = no result given; & = joins results of further samples; [ ] = dose if it differs, or a comment. The call rests on the fitted dose curve; in most records, active means well fitted curve in the direction sought with a large enough effect; inconclusive means small, poorly fitted or top-dose-only effect, or another doubt; inactive means no such curve, though single readings can be large; an effect the other way counts as inactive or inconclusive. Unless noted, on the % scale 0 is the no-effect control and ±100 the full control effect; potency means the concentration at half of the fitted maximal effect. These rows are one share of the data; most or all hits stand in other tables.

SMILES	N370S GC mod	GCN5L2 inh
CC1CCCCN1C(=O)Cc1ccc(F)cc1 (stereo not drawn)	4%	-6%
O=C(CCn1nnnc1CN1CCOCC1)N1CCC(c2cccc(Cl)c2)C1 (stereo not drawn)	-24%	-1%
Cc1cccc(NC(=O)c2nc[nH]c2C(=O)N[C@@H](Cc2ccccc2)C(=O)OC(C)(C)C)c1	?	-3%
c1ccc(CNc2ncnc3nc[nH]c23)nc1	1%	-20%
COc1cc(/C=N/NC(=O)CCN2CCN(c3ccccc3)CC2)cc(OC)c1OC	-1%	-1%
Cc1ccc(/C=N/NC(=O)c2cc3ccccc3cc2O)o1	-9%	-8%
CC(=O)c1cc(-c2ccccc2)n(CCC(=O)NCc2ccc(C)cc2)c1C	.	-3%
Cc1cc(F)ccc1NCc1cccnc1	7%	-6%
O=C(CCCOc1ccc(Cl)cc1)NC1CCCCC1	-14%	-8%
COc1ccc(NC(=O)CC2SC(N3CCCC3)=NC2=O)cc1Cl (stereo not drawn)	.	-1%
O=C(CN1CCN(S(=O)(=O)c2cccc(F)c2)CC1)Nc1ccnn1C1CCCC1	.	1%
COCCN1C(=O)/C(=C/c2ccc(Oc3ccc([N+](=O)[O-])cn3)c(OC)c2)SC1=Nc1ccccc1	2%	-6%
O=C(CNC(=O)c1ccc(Cl)cc1)OCCN1C(=O)c2ccccc2C1=O	.	0%
CCc1c(O)cc2n(c1=O)-c1ccccc1C2(C)C	-6%	-8%
CCC(C)NS(=O)(=O)c1ccc(OCC(=O)N2CCCCC2)cc1 (stereo not drawn)	17%	-1%
COc1ccccc1CNC(=O)C1CCCN(S(=O)(=O)c2ccc3c(c2)C(C)(C)C(=O)N3C)C1 (stereo not drawn)	-6%	-3%
Cc1c(NC2=NC(C)(C)Cc3ccccc32)c(=O)n(-c2ccccc2)n1C	2%	-10%
Cc1ccc(S(=O)(=O)CCN2C=CC(C(F)(F)F)=NCC2)cc1	22%	-3%
O=C1CC(c2ccccc2)CN1C(=O)c1cncc(Br)c1 (stereo not drawn)	3%	-8%
O=C(COC(=O)c1cc(-c2cccs2)nn1-c1ccccc1)Nc1cccc([N+](=O)[O-])c1	8%	-9%
CC(=O)N1CCN(C(=O)c2ccccc2NS(=O)(=O)c2ccc(F)cc2)CC1	.	-2%
COc1ccc(S(=O)(=O)N2CCOCC2)cc1NC(=O)C1CC1	.	2%
COC(=O)CNC(=O)C(NC(=O)c1ccc(Cl)cc1)C(C)C (stereo not drawn)	2%	-3%
O=C(O)c1ccccc1NC(=O)c1ccccc1Nc1ccccc1	24%	?
Cc1cc2cc(CNC(=O)c3ccc(S(=O)(=O)N4CCCCC4)cc3)ccc2[nH]1	-4%	-4%
SMILES	N370S GC mod	GCN5L2 inh
COc1ccc(-n2c(=S)[nH]c3ncccc3c2=O)cc1	-7%	-3%
CC(C)(C)NC(=O)CN(C(=O)CCC(=O)Nc1nccs1)c1ccc2c(c1)OCCO2	-3%	5%
O=C(NCCC1CCCC1)C1CCC(=O)N(CCCN2CCCC2=O)C1 (stereo not drawn)	-2%	-2%
Cc1ccc(-c2c3c(=O)n(C)c(=O)n(C)c3cn2-n2cnnc2)cc1	1%	-4%
CC(Sc1nc2c(c(=O)[nH]1)CCCC2)C(=O)Nc1ccc(Br)cn1 (stereo not drawn)	-6%	-3%
O=C(N1CCOCC1)N(Cc1cccs1)C1CCCC1	6%	-2%
Cn1c(NC(=O)CC2CCCCC2)cc(=O)n(C)c1=O	-1%	-4%
Cc1ccc(Oc2ncnc3sccc23)cc1	26%	0%
Cc1ccc(CNCC(O)(c2ccccc2)c2ccc(F)cc2)cc1 (stereo not drawn)	-3%	-8%
O=C(CSc1ncccn1)Nc1cccc(S(=O)(=O)N2CCOCC2)c1	.	-2%
CN=C1c2cc3cc(OC)ccc3n2CCN1Cc1ccccc1	-7%	-18%
CCc1ccccc1NC(=O)c1ccc(F)c(S(=O)(=O)NC2CCCCCC2)c1	.	3%
Cc1ccc(C(=O)N2CCN(S(C)(=O)=O)C2)cc1	12%	0%
Cc1cc(-c2n[nH]c(=S)n2/N=C/C=C/c2ccccc2)n[nH]1	-9%	-9%
CCCNC(=O)NC(=O)c1cnccc1C(F)(F)F	3%	?
CCCn1cnc2scc(-c3ccc(C)c(C)c3)c2c1=O	-18%	-5%
CCC1CCCCN1CCCNC(=O)COc1cc(=O)n(C)c2ccccc12 (stereo not drawn)	-10%	-1%
CC12CN3CC(C)(CN(C1)C3c1ccc(OCc3ccccc3)cc1)C2=O (stereo not drawn)	.	-5%
COC(=O)c1ccc(C(=O)OC)c(NS(=O)(=O)c2ccc(NC(C)=O)cc2)c1	-2%	-4%
COc1ccc(-c2nnc3ccc(SCC(=O)N4CCCCCC4)nn23)cc1OC	0%	-6%
Nc1c(S(=O)(=O)c2ccccc2)c2nc3ccccc3nc2n1/N=C/c1ccco1	7%	-13%
COc1ccc(NC(=O)CN2CCCCC2)c([N+](=O)[O-])c1	-1%	1%
CCOc1ccc2ccccc2c1C(=O)N1CCOCC1	4%	-2%
COc1cccc(OC(=O)c2cc3ccccc3oc2=O)c1	-2%	-5%
CCCCCC(=O)Nc1cc(N(C)C)nc2ccccc12	5%	-11%

Individual results from above:
GCN5L2 inh, CCCn1cnc2scc(-c3ccc(C)c(C)c3)c2c1=O stands at -5%
N370S GC mod, Cc1ccc(CNCC(O)(c2ccccc2)c2ccc(F)cc2)cc1 (stereo not drawn) stands at -3%
GCN5L2 inh, CC12CN3CC(C)(CN(C1)C3c1ccc(OCc3ccccc3)cc1)C2=O (stereo not drawn) stands at -5%

Additional results follow.
SMILES	N370S GC mod	GCN5L2 inh
O=c1[nH]c(N2CCOCC2)nc2ncn(Cc3ccccc3)c12	-25%	-3%
OCC1(Cc2ccc(Cl)cc2)CCN(CC2CC=CCC2)CC1 (stereo not drawn)	0%	-13%
COc1ccc(CCNC(=O)C2CCC(=O)N(CCc3ccc(OC)cc3)C2)cc1 (stereo not drawn)	-2%	-4%
Cc1ccc(N(CC(=O)NCc2ccc(OC(C)C)cc2)S(=O)(=O)N(C)C)cc1	.	-7%
CC1(C)CC(=O)C2=C(C1)OC(N)=C([N+](=O)[O-])C2c1cccs1 (stereo not drawn)	1%	0%
O=C(NCc1ccc(Cl)cc1)c1ccc(Cn2cc(C(F)(F)F)ccc2=O)cc1	-13%	-7%
CCn1cc(S(=O)(=O)NCc2ccc(OC)cc2)cn1	4%	0%
Cn1cc(C(=O)NCC(=O)Nc2ccccc2Br)cn1	.	-4%
COc1cccc(CN2CCN(CC(=O)NCCc3ccccc3)CC2)c1	-2%	-2%
CN(C)CCCNC1CS(=O)(=O)CC1O (stereo not drawn)	6%	-5%
Cc1nnc(SCC(=O)NCc2ccc3c(c2)OCO3)n1C	0%	-6%
O=C(NN1C(=O)C2C3C=CC(C4CC34)C2C1=O)c1ccc(Br)cc1 (stereo not drawn)	-1%	-3%
CCOc1ccc(NC(=O)CSc2nnc(C34CC5CC(CC(C5)C3)C4)n2C)cc1	7%	-3%
COc1ccc(NC(=O)Cn2ncn3nc(-c4ccc(OC)cc4)cc3c2=O)cc1	-14%	-23%
CN(C)CCN1C(=O)C(=O)/C(=C(/O)c2ccc(S(=O)(=O)N3CCOCC3)cc2)C1c1ccc(Br)cc1 (stereo not drawn)	-4%	-12%
O=C(c1ccc(S(=O)(=O)N2CCCC2)cc1)N1CCCCC1	0%	-6%
CCN1CC(O)=C(c2nc3ccccc3s2)C1=N	26%	-6%
CCOC(=O)c1sc(NC(=O)CSc2nc(C)cc(C(F)(F)F)n2)c(C#N)c1C	9%	0%
O=C(OCC(=O)c1c[nH]c2ccccc12)C1=COCCO1	4%	-4%
COC(=O)CSC1=C(C#N)C(c2ccc(C)cc2)C2=C(CCCC2=O)N1 (stereo not drawn)	-7%	-1%
Cc1cc(C)c(S(=O)(=O)N2CCN(C(=O)N3CCOCC3)CC2)c(C)c1	3%	-3%
COc1cc(/C=N/NC(=O)C(=O)NCc2cccnc2)ccc1O	5%	-4%
CC(=Nc1ccc(C)c(C)c1)C1=C(O)CCC1=O	-1%	-13%
COc1ccc(Br)cc1CNC(=O)C1CCCN(S(C)(=O)=O)C1 (stereo not drawn)	15%	3%
COc1cc(OC)c2c(c1O)OC(c1ccccc1)CC2=O (stereo not drawn)	-9%	-4%

An excerpt from above in order of molecular weight, smallest number first:
SMILES	N370S GC mod	GCN5L2 inh
O=C(OCC(=O)c1c[nH]c2ccccc12)C1=COCCO1	4%	-4%
O=C(c1ccc(S(=O)(=O)N2CCCC2)cc1)N1CCCCC1	0%	-6%
OCC1(Cc2ccc(Cl)cc2)CCN(CC2CC=CCC2)CC1 (stereo not drawn)	0%	-13%
CCOc1ccc(NC(=O)CSc2nnc(C34CC5CC(CC(C5)C3)C4)n2C)cc1	7%	-3%

The listing continues.
SMILES	N370S GC mod	GCN5L2 inh
O=C(NCc1cccc(Cl)c1)c1ccc(CS(=O)Cc2ccccc2Cl)o1 (stereo not drawn)	7%	-5%&2%
CC(=O)NC1CSCC1OC(C)=O (stereo not drawn)	-4%[2.35 µM]	-1%
CC1CCCN(C(=O)CNC(=O)c2cccs2)C1 (stereo not drawn)	.	-3%
COc1cc(C2C(C(=O)Nc3ccc(Cl)cc3)=C(C)Nc3nc(SC)nn32)cc(OC)c1OC (stereo not drawn)	.	1%
Cc1c(Cc2ccccc2)sc(NC(=O)c2ccco2)c1C(N)=O	8%	2%
Cc1c(Cl)cccc1NC(=O)CNC(=O)c1ccco1	-13%	2%
O=C(COc1ccccc1)NCC1COc2ccccc2O1 (stereo not drawn)	-3%	1%
C=C(C)Cn1c(SCC(=O)N/N=C/c2c(O)ccc3ccccc23)nc2ccccc2c1=O	10%	-7%
CCC(=O)NC(Cc1ccccc1)c1ccc2c(c1)OCCCO2 (stereo not drawn)	3%	-1%
Cc1cccc(C(=O)Nc2oc(-c3ccccc3)cc2C#N)c1	-5%	1%
CCCN(CCC)S(=O)(=O)c1ccc2c(c1)N(CC(=O)NCc1ccc(F)cc1Cl)C(=O)CS2	.	-16%
COC(=O)Cn1nc(C)c2c(C)n(-c3ccccc3)nc2c1=O	.	3%
Cc1cnccc1CNC(=O)CC1C(=O)NCCN1CC(C)(C)C (stereo not drawn)	-9%	-5%
CCc1ccc(NC(=O)N2CCN(Cc3nc4ccc(C)cc4o3)CC2)cc1	.	-6%
CCn1c(SCC(=O)c2c[nH]c3ccccc23)nnc1-c1cccs1	-17%	-8%
O=C(Cn1c(C(=O)O)cc2ccccc21)c1ccccc1	-3%	-16%
O=C(NCCCCNC(=O)c1cccs1)c1cccs1	-18%	-7%
O=C1c2[nH]nc(-c3ccccc3O)c2C(c2cccc(O)c2)N1Cc1ccco1 (stereo not drawn)	-12%	-7%
CC1=C(C(=O)OC(C)C)[C@@H](c2ccc(C)o2)NC(=O)N1	-5%	-4%
CCn1c(C)nc2cc(C(=O)NNC(=S)Nc3ccccc3)ccc21	-14%	-6%
Cn1c(=O)c2c(nc3n2CCCN3CCc2ccccc2)n(C)c1=O	-10%	-1%
C#CCNC(=O)C1=C[C@H](C2CC2)C[C@H](OCCCCO)O1	-8%	-2%
O=C(NCCc1ccccn1)c1nc(Cn2cc([N+](=O)[O-])cn2)no1	-2%	-2%
CC(=O)c1sc2c(c1C)c(=O)n(-c1ccc(Cl)cc1)c(=O)n2Cc1cc(=O)n2cc(Cl)ccc2n1	.	-5%
N#Cc1ccc(S(=O)(=O)N2CCC(Oc3cccc(C(F)(F)F)c3)CC2)cc1	.	-12%

Compound profiles, from the list above.
Profile of CC(=O)NC1CSCC1OC(C)=O (stereo not drawn) = N370S GC mod = -4%[2.35 µM]; GCN5L2 inh = -1%
Profile of Cc1cnccc1CNC(=O)CC1C(=O)NCCN1CC(C)(C)C (stereo not drawn) = N370S GC mod = -9%; GCN5L2 inh = -5%
Profile of COc1ccc(NC(=O)Cn2ncn3nc(-c4ccc(OC)cc4)cc3c2=O)cc1 = N370S GC mod = -14%; GCN5L2 inh = -23%

New compounds follow.
SMILES	N370S GC mod	GCN5L2 inh
CCN1CCN(c2ncnc3c2cnn3-c2cc(Cl)ccc2C)CC1	.	-15%
CCN(CC(=O)Nc1cc(Cl)ccc1C)C(=O)COc1ccccc1F	8%	-2%
Cc1ccc(S(=O)(=O)N(C)C)cc1NC(=O)C1CCCCN1S(=O)(=O)c1ccccc1 (stereo not drawn)	.	-8%
CCOCCCNC(=O)CSc1nc2nc(C)c(Cc3ccccc3)c(C)n2n1	1%	-10%
CCN(CC)S(=O)(=O)c1ccc(OC)c(-n2cnnn2)c1	-12%	-1%&-6%
COc1ccc(C(=O)Oc2ccc(=O)n(-c3ccccc3)n2)cc1	1%	1%
CCN(CC)CCOC(=O)c1ccc(N/C=C(/C#N)c2nc(-c3ccc4c(c3)OCO4)cs2)cc1	0%	17%
CC(=O)Nc1nnc(COc2ccccc2)s1	-24%	?
CCCOc1ccc(C(=O)NCC(c2cccs2)N(C)C)cc1 (stereo not drawn)	-3%	-2%
CCS(=O)(=O)c1c(S(=O)(=O)CC)c2ccccn2c1C(N)=O	-3%	9%
Cc1oc(-c2ccc(Cl)cc2)nc1CN1CCC(C(=O)NCCCN2CCOCC2)CC1	3%	-4%
CCOc1ccc(-c2noc(CCCC(=O)NC3CCCC3)n2)cc1OC	-3%	-3%
O=C(NCCCN1CCCC1=O)c1cc(=O)c2ccccc2o1	0%	-1%
Cc1onc(-c2ccccc2Cl)c1C(=O)NCc1nc(-c2ccc(C(F)(F)F)cc2)no1	14%	-4%

Bioassay records from PubChem.
